Vaccinia mCherry: qHTS for Stage-Specific Inhibitors of Vaccinia Orthopoxvirus: mCherry Reporter Primary qHTS; 310,000 compounds, 0.63% hits; Potency, µM (titrated, usually from 36.5 µM), for inactives: top-dose activity change, negative = inhibition, actives largely listed as inhibitors; Vaccinia virus mCherry reporter infection, fluorescence; about a quarter of the inactives have no number; AID 720579, 2013; active = well fitted inhibition curve with a large enough effect; inconclusive = small, poorly fitted or top-dose-only effect; inactive = no such curve, though single readings can be large or run the other way; tested in A549 cells; note: nearly all actives have a fitted effect of over 35% in size; inactives centre near -10
VACV Venus inh: qHTS for Stage-Specific Inhibitors of Vaccinia Orthopoxvirus: Venus Reporter Primary qHTS. 330,000 compounds, 0.46% hits. AID 720580, 2013. Potency, µM (series often up to 36.5 µM), for the others: at the top dose activity change, negative = inhibition, hits mostly inhibitors. Vaccinia virus Venus reporter expression, fluorescence; active means well fitted inhibition curve with a large enough effect; inconclusive means small, poorly fitted or top-dose-only effect; inactive means no such curve, though single readings can be large or run the other way; tested in A549 cells; note: nearly all actives have a fitted effect of over 30% in size; inactives centre near -10
Active calls of the source: *; i = inactive; ? = inconclusive; . = no result given; [ ] = remark or other dose. % is set by controls: 0 for no effect and ±100 for the full control effect; potency is the fitted concentration of half-maximal effect.

Start of the listing, in advance (2 entries):
SMILES	Vaccinia mCherry	VACV Venus inh
COc1ccc(CC(=O)NCCc2ccc(Cl)cc2Cl)cc1	-6%	-6%
C/C(=C/C=C/[C@@H](C)C(=O)O)[C@H]1CN[C@H](C(=O)O)[C@H]1CC(=O)O	5%	-4%

Main list, previewed entries included:
SMILES	Vaccinia mCherry	VACV Venus inh
COc1ccc(CC(=O)NCCc2ccc(Cl)cc2Cl)cc1	-6%	-6%
C/C(=C/C=C/[C@@H](C)C(=O)O)[C@H]1CN[C@H](C(=O)O)[C@H]1CC(=O)O	5%	-4%
CCOc1ccc(CNS(=O)(=O)c2c(C(=O)N3CCCCCC3)c(C)n(C)c2C)cc1OC	-10%	-3%
Cc1cccc(-n2c(SCC(=O)Nc3cccc(S(=O)(=O)NC4=NCCCCC4)c3)nc3ccccc3c2=O)c1C	-3%	-19%
CCN(Cc1ccccc1)S(=O)(=O)c1c(C)n(C)c(=O)n(C)c1=O	-17%	-11%
O=S(=O)(Cc1nc2ccccc2s1)c1ccccc1	.	0%
CC(C)(C)OC(=O)NCc1ccc(CNC(=O)c2[nH]cnc2C(=O)N[C@@H](Cc2ccccc2)C(=O)OCc2ccccc2)cc1	-5%	-15%
O=C(COC(=O)c1cc([N+](=O)[O-])ccc1N1CCOCC1)c1ccccc1	-17%	-15%
O=C(/C=C/c1cccc(Br)c1)c1ccc2c(c1)OCO2	i	-8%
CCOc1ncccc1C(=O)N(CCC(C)C)c1c(N)n(Cc2ccccc2)c(=O)[nH]c1=O	-25%	-11%
Cc1cc(C(=O)CN2C(=O)NC3(CCCc4ccccc43)C2=O)c(C)n1Cc1cccs1 (centres undefined)	-27%	-24%
CNP1(NC)=NC(C(F)(F)F)=NC(C(F)(F)F)=N1	-21%	-10%
COc1ccc(NC(=O)c2sc3nc(-c4cc5ccc(OC)cc5oc4=O)[nH]c(=O)c3c2C)cc1	-4%	-2%
COc1ccc(S(=O)(=O)N2CCN(C)CC2c2ccccc2)cc1OC (centres undefined)	-9%	-4%
Cc1ccc(C)c(CN2CCC3(CCC(CNC(=O)c4ccnn4C)O3)CC2)c1 (centres undefined)	-18%	-17%
O=C(Nc1ccc(F)c(F)c1)c1cc(S(=O)(=O)NC2CCCC2)ccc1F	i	-23%
CCOC(=O)Nc1ccc2c(c1)N(C(=O)C(C)N1CCCC1)c1ccccc1CC2 (centres undefined)	-9%	-6%
O=C1c2ccccc2-c2cccc(C(=O)N3CCCCC3)c21	i	-19%
COc1cc(C2C(C(=O)c3ccco3)=C(O)C(=O)N2CC2CCCO2)ccc1O (centres undefined)	i	-8%
COc1cccc(NC(=O)CN(C)C(=O)C2CCN(C(=O)c3ccccc3C)CC2)c1	-15%	-11%
COc1ccccc1CNS(=O)(=O)c1c(C)[nH]c(C)c1C(=O)N1CCCCC1	-21%	-2%
CN(C)c1ccc(/C=N/n2ncc3ccccc32)cc1	-14%	-13%
COC(=O)c1ccc(NC(=O)CSc2n[nH]c(-c3ccncc3)n2)cc1	.	-10%
Cn1c(NC(=O)c2ccc3c(c2)OCO3)cc(=O)n(C)c1=O	1%	-5%
Cc1ccc2nc(Cl)c3cc(C(=O)NCCCN4CCCC4)sc3c2c1	i	?

Structures shown so far that contain a Cl atom, in the order listed:
SMILES	Vaccinia mCherry	VACV Venus inh
COc1ccc(CC(=O)NCCc2ccc(Cl)cc2Cl)cc1	-6%	-6%
Cc1ccc2nc(Cl)c3cc(C(=O)NCCCN4CCCC4)sc3c2c1	i	?

The list continues:
SMILES	Vaccinia mCherry	VACV Venus inh
O=C(Nc1ccc(Cl)cc1)Nc1ccccc1C(=O)O	i	-9%
CCCCn1c(N)c(N(CC)C(=O)c2ccc(N3CCCC3=O)cc2)c(=O)[nH]c1=O	-12%	-8%
CC(Oc1ccccc1)C(=O)Nc1nc2c(s1)C(=O)CC(C)(C)C2 (centres undefined)	.	-13%
CCCCNS(=O)(=O)c1ccc2nc(SCC(=O)Nc3sccc3C#N)[nH]c2c1	?	?
COC(=O)c1ccccc1NC(=O)c1cc(C)nc2c1c(C)nn2-c1ccc(C)cc1	-6%	-7%
COc1ccc(N(C(=O)C(C)C)S(=O)(=O)c2ccc3c(c2)n(C)c(=O)n3C)cc1	.	-27%
Cc1ccccc1CNC(=O)c1oc2c(c1C)-c1[nH]ncc1CC2	-17%	-17%
CCCCOC(=O)c1ccc(NC(=O)c2c(N)n(C)c(=O)[nH]c2=O)cc1	-20%	?
COC1(OC)N=C(N)C2(C#N)C(c3cccc(Oc4ccccc4)c3)C12C#N (centres undefined)	.	-28%
O=C(CN1CCCCCC1)Nc1ccccc1C(=O)Nc1ccccc1	i	-11%
CCc1cccc(N(C(=O)c2csnn2)C(C(=O)NC(C)(C)CC)c2ccccn2)c1 (centres undefined)	i	-1%
CCN(CC)C(=O)C(=O)N/N=C/c1ccc(C(=O)O)cc1	-12%	-9%
COCCN1C(=O)C(=O)/C(=C(/O)c2ccc(S(=O)(=O)N3CCOCC3)cc2)C1c1cccc([N+](=O)[O-])c1 (centres undefined)	-2%[7.34 µM]	-16%[7.34 µM]
Cc1cc(/C=N/NC(N)=S)c(O)c(/C=N/NC(N)=S)c1	-24%	38%[activator]
O=C(COc1ccc(Cl)cc1)NCCSc1ccccc1	.	?
CN(C)CCNc1cc(N2CCN(C)CC2)ncn1	-21%	-11%
Cc1ccccc1C(=O)NC(=O)Nc1ccc(-n2nc(C(F)(F)F)cc2C(F)(F)F)cc1	14%	-7%
COc1ccc(/C=C(\NC(=O)c2ccccc2)C(=O)NCC2CCCO2)cc1 (centres undefined)	-11%	-8%
CCN(CC)CCCNC(=O)c1cn(C)c2ccc(S(=O)(=O)N(C)C3CCCCC3)cc2c1=O	-13%	-8%
C=CC[n+]1ccc2ccccc2c1C	-12%	-8%
COc1ccccc1OCC(=O)Nc1cc2c(cc1C(=O)O)OCCCO2	-8%	-2%
CCCC1CCC(c2ccc(C(=O)NN)cc2)CC1 (centres undefined)	-6%	-5%
Cc1c([N+](=O)[O-])cc(N2C(=O)C=CC2=O)cc1[N+](=O)[O-]	-10%	-1%
Cc1onc(-c2ccccc2)c1C(=O)Nc1ccc(S(=O)(=O)N2CCCCC2)cc1	11%	-12%
Cn1nnc(NC(=O)c2ccccc2)n1	-12%	-2%
SMILES	Vaccinia mCherry	VACV Venus inh
CCOC(=O)C1CCCN(C(=O)c2ccc3sccc3c2)CC1 (centres undefined)	i	4%
COc1ccc(C2c3[nH]c4ccccc4c3CCN2CCCn2cccn2)c(C)c1C (centres undefined)	-17%	-3%
COCCn1c(SCc2ccccc2F)nc2ccccc2c1=O	?	-12%
Cc1cccc(C(=O)OC2CCOC2=O)c1O (centres undefined)	?	0%
NC(=O)c1c(NC(=O)CSc2nnc(-c3ccco3)n2N)sc2c1CCCC2	-17%	-5%
CN1CCN(C(c2cccc(Br)c2)c2sc3nc(-c4ccco4)nn3c2O)CC1 (centres undefined)	-6%	-6%
COc1ccc(CC(=O)N2CCc3cc(OC)c(OC)cc3C2COc2ccc(OC)cc2)cc1 (centres undefined)	-9%	-11%
COc1ccc(N2C(=O)CCC2=O)c(OC)c1	-12%	-2%
COc1ccc(-n2c3c(cc(C(=O)NC4CCSC4=O)c2=O)C(=O)CC(C)(C)C3)cc1 (centres undefined)	1%	-2%
COc1ccc(N2C(=O)C(CC(=O)Nc3ccc(Cl)cc3)N(Cc3ccc4c(c3)OCO4)C2=O)cc1 (centres undefined)	-6%	-6%
O=C(C1CCN(S(=O)(=O)c2cccc3cccnc23)CC1)N1CCN(C2CCCCC2)CC1	i	-18%
Cc1cccc(NC(=O)C2CCN(S(=O)(=O)c3ccc(Cl)cc3)CC2)n1	-23%	-21%
CCC(=O)N[C@@H]1CC(C(C)(C)NC(=O)CC)CC=C1C (some centres undefined)	-4%	-1%
COCCCN(CC(=O)Nc1ccc(N2CCOCC2)cc1)S(=O)(=O)c1ccc(Cl)cc1	i	-10%
COc1ccc(N(C(=O)COc2ccc(Br)cc2)S(=O)(=O)c2ccc(C)cc2)cc1	-13%	-6%
Cc1cc(C)n(C(=O)CNC(=O)C2COc3ccccc3O2)n1 (centres undefined)	.	2%
COc1ccc(-c2noc(CCC(=O)N3CCN(c4ccccc4C)CC3)n2)cc1	i	-1%
COc1cccc(/C=N/NC(=O)N/N=C/c2cccc(OC)c2O)c1O	-13%	-19%
Cc1ccc(OCC(=O)NC(=S)Nc2ccc(S(=O)(=O)Nc3cc(C)on3)cc2)c(Br)c1	-13%	-7%
COc1ccc(NC(=O)C2CCN(c3cnccn3)CC2)cc1OC	-1%	-1%
CCC(COC)NCc1cn(-c2ccc(OC)cc2)nc1-c1cccc(F)c1 (centres undefined)	-20%	-12%
Cc1ccc(OCc2ccccc2C)c([N+](=O)[O-])n1	i	-4%
Cc1ccc(CN2CC(C(=O)Nc3cccc(C)n3)CC2=O)cc1 (centres undefined)	-2%	-1%
CC(C(=O)Nc1ccc2nccnc2c1)N1C(=O)C2C3C=CC(C3)C2C1=O (centres undefined)	i	-4%
O=C(Cn1c(=O)n(Cc2ccc(F)cc2)c(=O)c2ccccc21)NCC1CCCO1 (centres undefined)	-9%	-5%
SMILES	Vaccinia mCherry	VACV Venus inh
O=C(Cc1cccc2ccccc12)NN1C(=O)/C(=C\c2cccnc2)SC1=S	-6%	5%
Cc1cc(NS(=O)(=O)c2ccc(NC(=O)c3ccc([N+](=O)[O-])cc3)cc2)nc(C)n1	-11%	-10%
COc1ccc(-c2cc(C(=O)Nc3cc(Br)ccc3O)no2)cc1	-14%	-4%
COC(=O)N1[C@H](C)C=C[C@]1(Cc1ccccc1)C(=O)O	-13%	-7%
CC(C)(C)N(Cc1ccccc1)C(=O)COC(=O)c1ccc2ccccc2n1	-6%	-1%
CCOc1ccccc1C(=O)NC(C(=O)NCc1ccc(F)cc1)C(C)C (centres undefined)	-7%	-12%
CC1(C)CC(=O)C2=C(C1)Nc1ccccc1S2	-17%[7.34 µM]	0%[7.34 µM]
CCOc1ccc(NC(=O)c2ccc(S(=O)(=O)N3CCOCC3)cc2)cc1	i	-13%
Cc1ccc(C(=O)NCC(=O)Nc2ccc(C)c(S(=O)(=O)Nc3ccc(Cl)cc3)c2)s1	?	?
O=C(Nc1ccc2ccccc2c1)c1ccccc1[N+](=O)[O-]	-17%	-4%
COc1cc(NC(=O)c2nnn(Cc3ccc(SC)cc3)c2N)cc(OC)c1	-19%	-5%
NS(=O)(=O)c1ccc2nc(NC(=O)COc3ccccc3)sc2c1	1%	-13%
O=C1c2ccccc2C(O)(c2ncc[nH]2)N1CCc1ccccc1 (centres undefined)	-7%	-7%
CCN(Cc1ccccc1)C(=O)c1[nH]c2ccc(OC)cc2c1C	-14%	-19%
O=C(CSc1nc(Nc2ccccc2)nc(N2CCOCC2)n1)N1CCc2ccccc21	.	-10%
O=C(Cn1nc(-c2ccc(Cl)cc2)c2ccccc2c1=O)Nc1cccnc1	?	-21%
COc1ccc(-c2cc3nc(CCl)[nH]c(=O)c3s2)cc1	-11%	-8%
COc1ccc(NC(=O)c2cccnc2NCCc2ccccc2)cc1	-15%	-4%
CCNC(=S)NNC(=O)c1ccccc1Cl	-15%	2%
CC1CCN(C(=O)COC(=O)c2ccccc2NCCO)CC1	-7%	-7%
O=C(O)c1cc2c(cc1NC(=O)c1ccccc1OC(F)F)OCCCO2	-18%	-10%
CC12CCC(=O)C=C1CCCC2=O (centres undefined)	i	-2%
C=CCNC(=O)/C(=C\c1ccc(Br)cc1)NC(=O)c1ccccc1OC	i	5%
COc1ccc(NC2CCCN(C(=O)CCc3cccc(F)c3)C2)cc1 (centres undefined)	-16%	-13%
Cc1ccc(Cc2cnc(NC(=O)C3CCCO3)s2)cc1 (centres undefined)	.	-1%

In a second layout: four of the compounds above.
CCNC(=S)NNC(=O)c1ccccc1Cl
  Vaccinia mCherry: -15%; VACV Venus inh: 2%
O=C(Cc1cccc2ccccc12)NN1C(=O)/C(=C\c2cccnc2)SC1=S
  Vaccinia mCherry: -6%; VACV Venus inh: 5%
COC(=O)N1[C@H](C)C=C[C@]1(Cc1ccccc1)C(=O)O
  Vaccinia mCherry: -13%; VACV Venus inh: -7%
O=C1c2ccccc2C(O)(c2ncc[nH]2)N1CCc1ccccc1 (centres undefined)
  Vaccinia mCherry: -7%; VACV Venus inh: -7%

Returning to the listing, starting 2 compounds before the break.
SMILES	Vaccinia mCherry	VACV Venus inh
COc1ccc(NC2CCCN(C(=O)CCc3cccc(F)c3)C2)cc1 (centres undefined)	-16%	-13%
Cc1ccc(Cc2cnc(NC(=O)C3CCCO3)s2)cc1 (centres undefined)	.	-1%
CCc1ccc(NC(=O)CC2C(=O)N(c3ccc(Cl)cc3)C(=O)N2C2CCCC2)cc1 (centres undefined)	-21%	-21%
Cc1nc(-c2ccc(Cl)cc2)sc1C1(C)CC(c2ccc(Br)cc2)=NO1 (centres undefined)	i	-26%
O=C(Nc1c(C(=O)Nc2ccccc2F)oc2ccccc12)c1cc2ccccc2o1	1%	6%
C[C@H](CO)N1C[C@H](C)[C@H](CN(C)S(=O)(=O)c2ccccc2)Oc2ccc(NC(=O)NC3CCCCC3)cc2CC1=O	i	?
COc1ccccc1CCC(=O)OCC(=O)Nc1ccc(C)c(S(=O)(=O)N2CCCCC2)c1	-15%	-5%
Cc1cccn2cc(CCNC(=O)c3ccc(Br)o3)nc12	-22%	-8%
CCc1ccc(S(=O)(=O)Nc2c(C)nc3nc[nH]n3c2=O)cc1	-7%	-11%

Outcome played no part in choosing rows; 0.88% or so of the library scored in one or more.
